Mtb betalactam: beta-lactam sensitization of Mtb H37Rv. M. tuberculosis H37Rv growth with meropenem, percent inhibition; hits of this screen are not shown here. inhibition, % at 25 µM. hit rate 0.27% among 330,000;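 active = about 74% or more and at least 40 points above the plate without the antibiotic, then above 30% in a dose series; inconclusive = first-round hits that could not be retested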;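 also: growth measured after seven days incubation then overnight dye step; 0% = bacteria only wells and 100% = bacteria with antibiotic; twin plates without the antibiotic show which effects depend on it; some results filed as inactive read as strong as hits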
YopH PTP inh: blocks Yersinia enterocolitica YopH tyrosine phosphatase; fluorescence Ex485/Em525; inhibition, %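 (about 10 µM by stock and volumes)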; hit rate 0.16% among 140,000; AID 898;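 active = inhibition of 50% or more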;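 also: controls were vehicle for no effect and minimum signal wells for full effect; inactives centre near -20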
Arbovirus inh: arbovirus infection inhibition | hit rate 0.37% among 200,000 | inhibition, % at 10 µM | arbovirus infection cell-based antiviral screen;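 active = inhibition from about 30%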;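 also: bluetongue infection of BSR cells; cell survival read as ATP light after 72 h; 0% = infected wells without compound and 100% = uninfected wells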
RecA intein inh: blocks M. tuberculosis RecA intein splicing. P9WHJ3. cell-free RecA intein splicing, fluorescence. inhibition, %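 (about 9 µM by stock and volumes)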. hit rate 0.75% among 290,000; in the data active = inhibition above about 30%; inconclusive = no clear call, values can overlap the other calls;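 also: 0% = vehicle wells and 100% = reference inhibitor control wells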
Target sequence (P9WHJ3 whole entry, looked up): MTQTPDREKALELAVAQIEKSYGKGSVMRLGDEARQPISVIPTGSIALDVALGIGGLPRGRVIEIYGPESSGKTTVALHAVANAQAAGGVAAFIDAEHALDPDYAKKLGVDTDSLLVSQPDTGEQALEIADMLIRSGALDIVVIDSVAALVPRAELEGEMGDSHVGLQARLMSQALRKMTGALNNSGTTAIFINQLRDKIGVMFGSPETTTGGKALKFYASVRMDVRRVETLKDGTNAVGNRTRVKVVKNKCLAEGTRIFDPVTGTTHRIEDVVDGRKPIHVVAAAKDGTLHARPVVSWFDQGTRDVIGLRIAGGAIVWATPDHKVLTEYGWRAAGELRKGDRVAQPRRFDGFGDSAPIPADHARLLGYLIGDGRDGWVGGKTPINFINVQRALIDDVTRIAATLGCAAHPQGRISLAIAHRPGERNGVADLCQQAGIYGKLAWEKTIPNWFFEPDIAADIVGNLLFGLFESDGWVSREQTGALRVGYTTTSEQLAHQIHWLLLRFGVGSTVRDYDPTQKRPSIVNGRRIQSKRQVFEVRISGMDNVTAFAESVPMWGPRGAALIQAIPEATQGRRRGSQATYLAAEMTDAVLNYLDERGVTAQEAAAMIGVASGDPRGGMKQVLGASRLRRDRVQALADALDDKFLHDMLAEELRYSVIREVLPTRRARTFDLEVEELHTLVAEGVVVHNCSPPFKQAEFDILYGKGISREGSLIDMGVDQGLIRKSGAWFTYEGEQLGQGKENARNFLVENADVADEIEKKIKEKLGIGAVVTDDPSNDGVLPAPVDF
Mtb H37Rv: M. tuberculosis H37Rv growth inhibitors, H37Rv strain (AID 1626). M. tuberculosis H37Rv growth inhibition; higher % means a stronger effect. one-dose inhibition, % at 10 µM; IC50 in µM for titrated hits. hit rate 0.95% among 220,000;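 active = confirmed in a dose series; inconclusive = inhibition above 80% but not taken into the dose series; inactive = below 80% or under 30% at every dose of the series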;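 also: bacteria incubated seven days before Alamar blue readout; 0% = bacteria only wells and 100% = bacteria with antibiotic wells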
Arbovirus inh repeat: recorded beside Arbovirus inh, whose call it bears; inhibition, %; measured here: 10K subset replicate screen; many hits read low in the repeat;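 first of two repeat runs on a subset; 0% = infected and 100% = uninfected wells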
Numbers without * were called inactive; u = inconclusive; x = no result given. Only part of the results is shown. The share of hits here may be higher or lower than overall.

SMILES	Mtb betalactam	YopH PTP inh	Arbovirus inh	RecA intein inh	Mtb H37Rv	others
O=C(O)c1ccc(-n2cc(-c3cc4ccccc4oc3=O)[nH]c2=S)cc1	x	x	3	x	2%
CCOC(=O)/C(C(N)=NC)=C(\O)c1ccccc1	-1	-19	-2	2.1	7%
COc1cccc2cc(C(C)N(CCCN3CCOCC3)C(=S)Nc3ccc(C)c(C)c3)oc12 (centres undefined)	0	x	7	9.8	6%
CC(C)(C)n1cnc2cc(NCc3ccccc3O)ccc21	4	x	x	-2.5	x
COc1ccc(OC)c(-c2cc(C(=O)Nc3c(C)nn(Cc4ccccc4)c3C)no2)c1	-3	-8	3	0.8	55%
Cc1cc(C)n(CC(=O)NC2C(=O)N3C(C(=O)O)=C(CSc4nnc(C)s4)CSC23)n1 (centres undefined)	7	x	0	-1.1	-9%
C/C(CC(=O)N1CCN(C=O)CC1)=N\NC(=O)c1ccc(Br)cc1	-1	x	15	-3.3	7%
O=C(COC(=O)c1cccc([N+](=O)[O-])c1)NCc1ccc2c(c1)OCO2	-3	-21	-7	x	6%
COc1ccc(OC)c(C2=NOC(C(=O)Nc3cc(C)nn3-c3ccccc3)C2)c1 (centres undefined)	1	-30	4	1.4	72%	Arbovirus inh repeat=-4
O=C(NCC1CCCCC1)c1cc([N+](=O)[O-])ccc1Cl	7	x	x	0.6	x
Nc1ccc(Sc2cc(Cl)nc(N)n2)cc1	24	-20	1	3.0	5%
O=C(CSc1nnc2c(n1)[nH]c1ccccc12)Nc1ccc(S(=O)(=O)Nc2ncccn2)cc1	x	x	2	0.3	4%
CCc1ccc2[nH]c(=O)c(CN(CCN(CC)CC)C(=O)NC3CCCCC3)cc2c1	-11	x	8	-1.6	2%
Cc1cc(NC(=O)NN2CCOCC2)nn1-c1c(Cl)cccc1Cl	12	x	x	0.2	-3%
CCN=C1S/C(=C\c2ccc(-c3cccc(C(=O)O)c3)o2)C(=O)N1CC	14	x	41*	-23	2%
Cc1cccc(C)c1NC(=O)C(c1ccccc1)N1CCOCC1 (centres undefined)	1	-28	-7	-9.1	-10%
Cc1cc(Cl)ccc1NC(=O)CN1C(=O)NC2(CCCC2)C1=O	-6	x	x	0.4	x
O=C1Nc2ccccc2N=C(c2ccccc2)C1N1CCOCC1 (centres undefined)	1	-31	1	x	-3%
O=C(Nc1ccc2c(c1)OCO2)C(c1ccccc1)N1CCCCC1 (centres undefined)	-1	-5	-7	-2.5	11%	Arbovirus inh repeat=-2
COc1ccc(C(=O)Nc2ccc3c(c2)nc2n3CCSC2)cc1	0	-37	-9	1.1	-6%
COc1ccccc1OCc1ccc(C(=O)n2nc(C)c(Cl)c2C)o1	6	-12	-3	4.0	-5%
COc1ccc(NC2CCCN(C(=O)CSc3ccncc3)C2)cc1 (centres undefined)	-4	x	x	-3.6	x
C/C(=N\NC(=O)c1ccccc1F)c1cccc(NC(=O)c2ccc(C)cc2)c1	15	x	x	1.5	x
O=C(CNCCO)N1N=C(c2cccs2)CC1c1cccs1 (centres undefined)	5	x	10	1.9	-6%
COc1ccc(C(=O)NC2CC2)cc1OC1CCN(Cc2cnn(C)c2)CC1	-22	x	x	-3.5	x
(next part)
SMILES	Mtb betalactam	YopH PTP inh	Arbovirus inh	RecA intein inh	Mtb H37Rv	others
Cc1occc1C(=O)NNC(=O)c1cccc(F)c1	-8	x	9	-1.0	2%
CCC(=Nc1ccc(Cc2ccncc2)cc1)c1c(O)n(C)c(=O)n(C)c1=O	x	-32	6	x	-11%
Cc1ccc(C(C(=O)NCc2ccc(F)cc2)N(CCCO)C(=O)C2COc3ccccc3O2)o1 (centres undefined)	4	x	0	0.4	9%
O=C(Nc1nnc(S(=O)(=O)N2CCOCC2)s1)c1cccc(F)c1	11	x	x	-1.0	x
O=C(O)CC(C(=O)O)N1C(=O)/C(=C/c2ccc(-c3nc4ccccc4s3)o2)SC1=S (centres undefined)	-11	-19	-6	-12	x
CN(C)C(=O)c1cccn1-c1ncc(C(F)(F)F)cc1Cl	3	x	1	0.5	-2%
O=C(Nc1ccc(F)cc1)C1CCCN(S(=O)(=O)c2cccc3nonc23)C1 (centres undefined)	3	x	x	-1.0	x
Cn1c(SCn2nnc3ccccc3c2=O)nc2ccccc2c1=O	1	x	7	6.9	2%
COc1cccc2cc(C(=O)C3=C(O)C(=O)N(CCN4CCOCC4)C3c3cccc(Cl)c3)oc12 (centres undefined)	3	x	x	2.8	x
O=C(Nc1ccc2c(c1)OCO2)C1CCN(C(=O)c2cccs2)CC1	x	-17	-12	1.5	0%
Cc1ccc(S(=O)(=O)N2CCC(C(=O)OCC(=O)N(CC(C)C)C3CCS(=O)(=O)C3)CC2)cc1C (centres undefined)	-23	x	x	1.5	x
CC(=O)N1CCc2cc(S(=O)(=O)NCCC(=O)N3CCc4ccccc4C3)ccc21	2	-3	7	2.7	-2%
CCN(c1ccccc1)S(=O)(=O)c1ccc(C(=O)Nc2ncccc2C)cc1	0	x	x	-4.6	x
O=C(CCS(=O)(=O)Cc1ccccc1)Nc1nncs1	0	x	x	-0.7	x
CCCOc1ccc(C2c3c(oc4ccccc4c3=O)C(=O)N2CCCN2CCOCC2)cc1 (centres undefined)	-5	-44	6	2.3	-5%
Cc1cccc(-n2c(Cc3cc(=O)[nH]c(=O)[nH]3)nnc2SCC(=O)N2CCc3ccccc32)c1	-4	x	x	2.6	x
CCOc1cccc(C(=O)Nc2nccs2)c1	-5	-20	-5	0.4	0%
CCCCCn1c(SCC(=O)CC(=O)OCC)nc2cc(C(=O)N3CCC(C(N)=O)CC3)ccc2c1=O	-15	x	5	x	-6%
O=S(=O)(Cc1ccccc1)C1CCCCC1O (centres undefined)	-1	x	x	-0.4	4%
O=C(N/N=C/c1cc(Br)c(O)c(Br)c1)c1cc2c(ccc3ccccc32)o1	35	x	x	-14	x
Cc1cc(NC(=O)c2cccs2)no1	-7	x	x	2.4	0%
CCOC(=O)CSC1=C(C#N)C(c2ccco2)C(C(=O)OCc2ccccc2)=C(C)N1 (centres undefined)	95	-2	-11	19	6%
CC(=O)NCCNC(=O)c1ccc(-n2c(C)ccc2C)cc1	-6	x	-3	-0.7	2%
CCn1c(-c2ccccc2)c(C(=O)CCl)c2ccccc21	99	x	-36	40*	76%
O=C(NCCc1csc(-c2ccccc2)n1)c1ccco1	-3	x	x	2.2	8%
(further entries)
SMILES	Mtb betalactam	YopH PTP inh	Arbovirus inh	RecA intein inh	Mtb H37Rv	others
CCOc1ccc(-c2nnn(CC(=O)NCc3cccs3)n2)cc1	-1	-29	1	2.7	0%
COc1ccc(N/N=C(/N=Nc2nc(C)cc(=O)[nH]2)c2ccccc2)cc1	100	1	-40	-0.2	u
COc1ccc(N2C(=O)N(Cc3ccc(C)cc3)c3ccccc3S2(=O)=O)cc1	-1	x	2	6.7	5%
COc1cccc(-n2c(CN3CCN(c4cccc(C)c4)C(C)C3)nc3ccc([N+](=O)[O-])cc3c2=O)c1 (centres undefined)	9	0	5	-2.2	1%
CCCCCCNC(=O)CC(NS(=O)(=O)c1ccc(NC(C)=O)cc1)C(C)C (centres undefined)	-9	-40	3	-4.7	-5%
CCN(CC)S(=O)(=O)c1ccc(NC(=O)c2ccc(N(C)S(C)(=O)=O)cc2)cc1	-6	-3	5	-2.0	4%
Cc1ccc(N2C(=O)C3C(C2=O)N2CCCN2C3c2ccccc2)cc1C (centres undefined)	-5	x	3	-3.3	-4%
C=CCn1c(-c2cc(Cl)ccc2OC)n[nH]c1=S	18	-49	10	0.7	-15%
Cc1ccc(-c2nnc(Nc3ccc(O)cc3)c3ccccc23)cc1S(=O)(=O)NCCO	6	x	x	25	x
COc1ccc(S(=O)(=O)Nc2ccccc2N2CCOCC2)cc1[N+](=O)[O-]	-1	x	x	0.7	-1%
CC1CCc2c(sc3nc(CN4CCOCC4)nc(NS(=O)(=O)c4cccc([N+](=O)[O-])c4)c23)C1 (centres undefined)	2	-15	18	-6.6	x
Cc1ccc(-c2n[nH]c(=S)n2/N=C/c2ccc(C(=O)O)cc2)cc1	3	x	x	-1.6	x
CCCCC(NS(=O)(=O)c1ccc(OC)cc1)C(=O)O (centres undefined)	13	-38	12	0.9	-8%	Arbovirus inh repeat=2
CN(CC(=O)NC(=O)NCc1ccco1)Cc1nc2ccccc2c(=O)[nH]1	10	-18	28	-2.6	1%
CC(=O)Nc1nonc1-c1ccccc1	5	-11	2	-1.4	-3%
O=C(COC(=O)COc1ccc(Br)cc1)NCCC1=CCCCC1	9	-29	-6	-0.1	-2%
COc1cc(/C=C/C(=O)c2ccc(NS(=O)(=O)c3ccc(C)cc3)cc2)ccc1OC(F)F	-1	-20	-38	16	3%
CCN(C(=O)CN1CCN(S(=O)(=O)c2cc(Cl)ccc2Cl)CC1)c1c(N)n(Cc2ccccc2)c(=O)[nH]c1=O	2	-21	3	3.0	-5%
CCn1ncc(C2=NOC(C(=O)Nc3ccccc3C(=O)OC)C2)c1C (centres undefined)	x	18	10	1.1	5%
Cc1c(Cl)ccc2sc(N3CCN(C(=O)C4=COCCO4)CC3)nc12	46	x	x	12	x
Cc1ccc(N2CC(C(=O)N3CCC(C(=O)Nc4nnc(C(C)(C)C)s4)CC3)CC2=O)cc1 (centres undefined)	6	x	x	0.2	x
CC(C)(C)NC(=O)CN(CC1CCCO1)C(=O)CNS(=O)(=O)c1ccc(F)cc1 (centres undefined)	-1	x	x	1.4	x
COc1ccc(Nc2nc(-c3cccs3)cs2)c(OC)c1	67	15	9	-4.1	-6%
CCCc1ccc(C(C)NC(=S)NCc2ccc(F)cc2)cc1 (centres undefined)	-2	x	x	3.3	x
COCCCn1c(SCC(=O)NC2CCCCC2)nnc1-c1ccco1	-5	x	x	18	x

2 records picked at random from those above, as already listed:
SMILES	Mtb betalactam	YopH PTP inh	Arbovirus inh	RecA intein inh	Mtb H37Rv	others
COc1ccc(N2C(=O)N(Cc3ccc(C)cc3)c3ccccc3S2(=O)=O)cc1	-1	x	2	6.7	5%
COc1cccc(-n2c(CN3CCN(c4cccc(C)c4)C(C)C3)nc3ccc([N+](=O)[O-])cc3c2=O)c1 (centres undefined)	9	0	5	-2.2	1%

Later entries:
SMILES	Mtb betalactam	YopH PTP inh	Arbovirus inh	RecA intein inh	Mtb H37Rv	others
COc1ccc2cc(C3OCCO3)c(Cl)nc2c1	-7	x	-9	4.2	0%
O=c1c2ccccc2nc(SCc2cc(F)ccc2F)n1C1CCCC1	-1	-46	0	1.1	-1%
Cc1ccnc(NS(=O)(=O)c2cc([N+](=O)[O-])ccc2C)c1	-3	x	1	-0.2	-6%
O=C1CCCC2=C1C(c1ccccn1)Nc1ccc(C(=O)c3ccccc3)cc1N2 (centres undefined)	3	-5	2	0.0	-5%
O=C(Nc1ccc(C(=O)N2CCCC2)cc1)c1ccc(F)cc1Cl	-3	x	x	2.6	x
Cc1ccc(Cn2nnnc2CN2CCC(n3nnc4ccccc43)CC2)cc1	u	-42	-14	7.0	-2%
COc1ccc(C(C#N)=C2C=CC(=NO)C=C2)cc1	10	x	x	21	3%
CCCCN(CCCC)CC1OCc2ccccc2CO1	-4	-6	6	-2.0	-2%
Brc1ccc(/C=N/n2cnnc2)s1	-4	x	x	-2.0	2%

By substructure: those above with two or more sulfur atoms
SMILES	Mtb betalactam	YopH PTP inh	Arbovirus inh	RecA intein inh	Mtb H37Rv	others
Cc1cc(C)n(CC(=O)NC2C(=O)N3C(C(=O)O)=C(CSc4nnc(C)s4)CSC23)n1 (centres undefined)	7	x	0	-1.1	-9%
O=C(CSc1nnc2c(n1)[nH]c1ccccc12)Nc1ccc(S(=O)(=O)Nc2ncccn2)cc1	x	x	2	0.3	4%
O=C(CNCCO)N1N=C(c2cccs2)CC1c1cccs1 (centres undefined)	5	x	10	1.9	-6%
O=C(Nc1nnc(S(=O)(=O)N2CCOCC2)s1)c1cccc(F)c1	11	x	x	-1.0	x
O=C(O)CC(C(=O)O)N1C(=O)/C(=C/c2ccc(-c3nc4ccccc4s3)o2)SC1=S (centres undefined)	-11	-19	-6	-12	x
Cc1ccc(S(=O)(=O)N2CCC(C(=O)OCC(=O)N(CC(C)C)C3CCS(=O)(=O)C3)CC2)cc1C (centres undefined)	-23	x	x	1.5	x
O=C(CCS(=O)(=O)Cc1ccccc1)Nc1nncs1	0	x	x	-0.7	x
CCN(CC)S(=O)(=O)c1ccc(NC(=O)c2ccc(N(C)S(C)(=O)=O)cc2)cc1	-6	-3	5	-2.0	4%
CC1CCc2c(sc3nc(CN4CCOCC4)nc(NS(=O)(=O)c4cccc([N+](=O)[O-])c4)c23)C1 (centres undefined)	2	-15	18	-6.6	x
COc1ccc(Nc2nc(-c3cccs3)cs2)c(OC)c1	67	15	9	-4.1	-6%
